GIV Gai3 FP: inhibitors of GIV GBA-motif binding to rat Galpha-i3; P08753; Galpha-i3/FITC-GIV peptide fluorescence polarization, 90 min; active compounds read low; scaled: aluminum fluoride 0%, vehicle 100%; percent of control (FP), % (concentration not given with the values); 210,000 tested, 0.42% active; AID 1224905;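 active means replicate mean at 85% of control or lower, very high polarization wells dropped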;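 further: wells of about 15 µL received 100 nL stock; the first replicate is given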
Target sequence (P08753 whole entry, looked up): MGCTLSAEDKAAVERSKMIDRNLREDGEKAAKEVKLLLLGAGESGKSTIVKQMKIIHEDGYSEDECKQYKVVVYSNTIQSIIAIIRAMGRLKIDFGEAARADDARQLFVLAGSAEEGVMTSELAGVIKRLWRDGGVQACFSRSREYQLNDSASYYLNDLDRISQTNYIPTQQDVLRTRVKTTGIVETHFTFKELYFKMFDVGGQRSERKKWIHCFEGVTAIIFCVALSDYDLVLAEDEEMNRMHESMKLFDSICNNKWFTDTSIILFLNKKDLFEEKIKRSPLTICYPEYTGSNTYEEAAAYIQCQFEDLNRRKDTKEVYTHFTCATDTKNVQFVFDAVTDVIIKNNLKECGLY
* = called active by the depositor. A portion of the library; rates above refer to the full screens.

item	GIV Gai3 FP	SMILES
1	97.2	CCc1cc(C2CCCN2C(=O)c2cc(C3CCCCC3)no2)on1 (configuration not stated)
2	101.0	CCOC(=O)c1sc2nc(CC(=O)OC)nc(N3CCC(C(=O)OCC)CC3)c2c1C
3	109.3	COc1ccc(-c2nc3c4cc(I)ccc4c4ccccc4c3[nH]2)cc1OC
4	99.7	O=C(NCc1ccc(Cl)cc1)c1ccc(-n2nc(N3CCCC3)ccc2=O)cc1
5	101.3	Cn1c2c(c(=O)n(C)c1=O)C(c1cccc(OC(=O)c3ccccc3F)c1)C1=C(N2)c2ccccc2C1=O (configuration not stated)
6	112.7	CCOC(=O)C1C(=O)NC(SCC(=O)Nc2c(C)cc(C)cc2C)=C(C#N)C1c1ccccc1OCC (configuration not stated)
7	104.0	COC(=O)c1c(-c2cccc(Cl)c2)noc1Nc1cc(Cl)c(OC)cc1OC
8	106.0	O=C(Nc1ncn[nH]1)C1CCC1
9	97.8	Cn1c(SCC(=O)NCC2CCCO2)nnc1-c1cc2ccccc2o1 (configuration not stated)
10	109.4	C=CCOc1c(Cl)cc(CC2C(=O)N(c3ccc(CC)cc3)N=C2C)cc1OC (configuration not stated)
11	108.3	CCCCOc1ccccc1C1C(C(=O)OCC)=CN(Cc2ccc(OC)cc2)C=C1C(=O)OCC
12	119.0	O=[N+]([O-])c1ccc2c(c1)C(N1CCOCC1)/C(=C\COc1ccc(Cl)cc1Cl)O2 (configuration not stated)
13	100.6	O=C(Nc1ccccc1)N1CCN(Cc2cc(=O)n3nc(-c4ccc(F)cc4)sc3n2)CC1
14	108.0	CCC(C)NS(=O)(=O)c1ccccc1-c1nc(-c2ccc(C)cc2)no1 (configuration not stated)
15	109.9	COc1ccc(/C=C2/N=C(c3ccc(OC)c(Br)c3)OC2=O)c(OC)c1
16	121.1	Cc1ccc(C2Nc3ccc4ccccc4c3C3=C2C(=O)CC(C)(C)C3)cc1[N+](=O)[O-] (configuration not stated)
17	109.2	COCc1cc(C)c2c(n1)sc1c(-c3ccccc3)onc12
18	103.0	CC1CCCN(CCNC(=O)C2CCc3nc(N4CCOCC4)ncc3C2)C1 (configuration not stated)
19	98.8	COc1ccc(C)c2sc(NC(=O)c3ccc(S(=O)(=O)N(C)CC4CCCO4)cc3)nc12 (configuration not stated)
20	105.6	CCN(Cc1ccccc1)c1ccc(NC(=O)c2ccc(Br)cc2)cc1C(=O)O
21	104.4	CCc1nc2cc(-c3noc(-c4ccc5c(c4)OCO5)n3)ccc2o1
22	106.8	O=C(Cn1ncn2nc3c(c2c1=O)CCCC3)Nc1ccc2c(c1)OCCO2
23	103.0	COc1ccc(/C=C/c2onc(C)c2NC(C)=O)cc1S(=O)(=O)N1CCOCC1
24	102.4	CCCN1CCN(c2ncnc3sc(C(=O)Nc4ccccc4C(=O)OCC)c(C)c23)CC1
25	114.8	COc1ccccc1N1CCN(C(=O)c2ccc3c(=O)n(Cc4ccc5c(c4)OCO5)c(=S)[nH]c3c2)CC1
26	108.6	CCCCNc1nc(SCC(=O)Nc2cccc(OC)c2)nc2ccccc12
27	99.9	Cc1cccc2sc(NC(=O)c3sc4ncn(Cc5ccccc5F)c(=O)c4c3C)nc12
28	109.2	N#CC1=C(N)C(C#N)(C#N)[C@@H](c2cccnc2)[C@@H]2CCCC=C12
29	96.6	Cn1nc(C(=O)N2CCCC(C(=O)NC3CC3)C2)c2c1CCN(C(=O)COc1ccccc1)C2 (configuration not stated)
30	111.5	Fc1ccccc1-c1nc(-c2ccc3sc4ccccc4c3c2)c(-c2ccccc2)[nH]1
31	103.5	CCOC(=O)C1=C(C)NC2=C(C(=O)C(C(=O)OCC)C(c3ccc(OC)cc3)C2)C1c1cc(OC)c(OC)c(OC)c1 (configuration not stated)
32	127.7	Cc1cc(Br)ccc1N1C(=O)/C(=C/c2ccc(-c3cc(Cl)ccc3Cl)o2)C=C1c1ccccc1
33	100.5	O=C(c1nnc(-c2csc(S(=O)(=O)NC3CC3)c2)o1)N1CCCC1
34	106.0	Cc1cc(N2CCCC2)nc(N2CCN(C(=O)c3ccc(C(C)(C)C)cc3)CC2)n1
35	111.7	CCN(CC)c1nc(=O)n(-c2nc(-c3ccccc3)oc2-c2ccccc2)cc1Cl
36	100.7	COc1ccc(S(=O)(=O)Nc2ccc(C(=O)N3CCCC3C(=O)NCCC(C)C)cc2)cc1 (configuration not stated)
37	103.2	OC(CN(C1CCCCC1)C1CCCCC1)Cn1c2ccc(Cl)cc2c2cc(Cl)ccc21 (configuration not stated)
38	95.8	O=C(NCc1c(-c2ccc(Cl)cc2)nc2n1CCS2)C1CC1
39	105.3	COC(=O)c1cc(=O)n2c(n1)sc1cc(C)c(C)cc12
40	107.3	N#Cc1c(C(F)(F)F)cc(-c2cccs2)nc1SCC(=O)Nc1ccccn1
41	109.6	CC(C)Sc1nnc2c3ccccc3n(CCc3ccccc3)c2n1
42	105.8	COc1ccc(-c2nn3c(=O)c(NC(=O)c4ccc(OC)c(OC)c4)cnc3o2)cc1
43	116.6	C=CCNc1ncnc2c1c(-c1ccccc1)cn2-c1ccc(Br)cc1
44	106.7	COc1ccc(N2C3=[N+](CC2(O)c2ccccc2)C(c2ccccc2)CCC3)cc1 (configuration not stated)
45	108.1	C#CCN1C(=O)C(O)(CC(=O)c2ccc3c4c(cccc24)CC3)c2ccccc21 (configuration not stated)
46	104.1	CN1CC(=O)N(CC(=O)N2CCN(c3ccccc3)CC2)c2ccccc2C1=O
47	106.3	Cc1cccc(CNC(=O)c2ccc(Nc3ncc(-c4cccc(F)c4)cn3)cc2)c1
48	103.0	COc1ccc(S(=O)(=O)Oc2ccc(/C=N/NC(=O)C3(C(=O)N/N=C/c4ccc(OS(=O)(=O)c5ccc(OC)cc5)cc4)CCC3)cc2)cc1
49	105.1	CC(C)NC(=O)N1CC=C(C(=O)N2CCCC2)CC1
50	107.7	COc1ccc(C2N(c3ccccc3)CCN2c2ccccc2)cc1Br
51	113.6	Cc1ccccc1C1N2CC3(C(C)C)CN1CC(C(C)C)(C2)C3=O (configuration not stated)
52	101.9	O=C(CC1CCN(C(=O)c2cc3cc(Cl)ccc3[nH]2)CC1)NC1CCCCC1
53	101.2	COCON1C(=O)CN(C(=O)OC)C1c1ccccc1 (configuration not stated)
54	98.7	Cc1noc(C)c1C1CCCN1S(=O)(=O)c1cccc2nsnc12 (configuration not stated)
55	98.5	CCNC(=O)N1CCNC(=O)C1(C)C
56	102.7	O=C(NCCC1=CCCCC1)C1CC(=O)N(C2CCCCCC2)C1 (configuration not stated)
57	104.7	Cc1[nH]c(-c2nnc(C3CC3)o2)c(C)c1S(=O)(=O)N1CCCCC1
58	112.8	Cc1csc(-c2cc(S(=O)(=O)N3CCCC3)cn2CC(=O)N2CCCC2)n1
59	135.9	COc1ccc(OC)c(C2Oc3ccc(Cl)cc3C3CC(c4cccs4)=NN32)c1 (configuration not stated)
60	105.4	CC(C)OC(=O)C1=C(N)OC2=C(C(=O)CCC2)C1c1ccc(Cl)cc1 (configuration not stated)

Further compounds.
item	GIV Gai3 FP	SMILES
61	106.5	CC1(C)CC(=O)C2=C(C1)N(c1ccccc1)C(N)=C(C#N)C2c1cc(Br)cs1 (configuration not stated)
62	104.3	COc1ccc(CNC(=O)C2(C)Cc3ccccc3C(=O)N2C2CCCC2)cc1 (configuration not stated)
63	100.4	N#CC1=C(N)n2c(s/c(=C/c3ccc4c(c3)OCO4)c2=O)=C(C#N)C1c1ccc2c(c1)OCO2 (configuration not stated)
64	108.4	O=C(NCCCN1CCC(N2CCCCC2)CC1)c1nnc2ccc(-c3ccccc3)nn12
65	101.1	Cc1nn(-c2ccc3nnc(C)n3n2)c(C)c1CCC(=O)Nc1cccnc1
66	110.8	Cc1ccc(-n2ncc3c(=O)n(Cc4nc(-c5ccc(C(C)(C)C)cc5)no4)cnc32)cc1Cl
67	110.2	Cc1nn2c3ccccc3n(CC(=O)C(C)(C)C)c2nc1=O
68	123.5	CC(C)c1ccc(NC(=O)CSc2nc(=O)c3cccnc3n2C2CCCC2)cc1
69	98.6	c1ccc(-n2ncc3c(Nc4ccc5c(c4)OCO5)nc(NCC4CCCO4)nc32)cc1 (configuration not stated)
70	111.5	CCOC(=O)c1c(NC(=O)CSc2nnc(CNC(=O)Cc3ccccc3)n2C)sc2c1CCC2
71	106.5	O=C(Nc1ccc(-c2noc(COc3ccc(Br)cc3)n2)cc1)c1cccs1
72	119.0	CCOC(=O)C1=CN(C(C)C)C=C(C(=O)OCC)C1c1cc(Br)c(OC)c(OCC)c1
73	108.3	CCN(CC)C(=O)C1C(=O)N(CCO)C2(C)CC1c1ccccc1O2 (configuration not stated)
74	107.4	CCCc1nc2sc3c(N(CCC)CCC)ncnc3c2c2c1COC(C)(C)C2
75	112.3	COc1ccc(Br)cc1C1NC(=O)c2c(sc3c2CCCC3)N1 (configuration not stated)
76	114.2	CN(C)CCN1C(=O)C(=O)/C(=C(/O)c2ccccc2)C1c1cccc(F)c1 (configuration not stated)
77	106.4	O=C1C2C3C=CC(C2C(=O)N1Cc1ccccc1)C1C2C(=O)N(Cc4ccccc4)C(=O)C2C31 (configuration not stated)
78	104.5	O=C(CSc1nnc2c(n1)-c1cccc3cccc-2c13)Nc1ccccc1Br
79	91.2	COc1ccc(NC(=O)COc2ncnc3onc(-c4ccccc4)c23)cc1
80	99.0	CC(=O)Nc1cccc(C(=O)Nc2cccc(-c3ccc4cc(C(C)C)ccc4n3)c2)c1
81	106.3	O=C(NCc1cccnc1)c1ccc2c(=O)n(-c3cc(C(F)(F)F)ccc3Cl)c(=S)[nH]c2c1
82	102.3	COc1ccc(NS(=O)(=O)c2cc(-c3noc(C)n3)cs2)cc1OC
83	108.4	CCOC(=O)C1=NN(c2ccccc2)C2(S1)c1ccccc1C(c1cc(C)ccc1C)=NN2c1ccccc1 (configuration not stated)
84	107.5	Cc1ccccc1-c1noc(CSc2nc3cc4c(cc3c(=O)n2CC2CCCO2)OCO4)n1 (configuration not stated)
85	101.4	O=C(Nc1ccc(SCc2nnc(-c3ccccc3)o2)cc1)Nc1ccc(Br)cc1F
86	109.0	CCOC(=O)c1[nH]c(C)c(CCC(=O)NCc2cn[nH]c2C)c1C
87	109.6	COc1ccc(OC)c(-n2c(=S)[nH]c3cc(C(=O)Nc4ccc(OC)c(OC)c4)ccc3c2=O)c1
88	109.1	CC(=O)Oc1ccc(C2(C)CC(C)(C)NC(=S)N2C)c(OC(C)=O)c1 (configuration not stated)
89	104.9	COc1ccc(C2=NN(C(=O)CSc3nnc(CNC(=O)c4cccs4)n3C)C(c3ccc(C)cc3)C2)cc1 (configuration not stated)
90	103.5	CC1CCCN(S(=O)(=O)c2ccc(-c3nnc(C4CCCC4)o3)o2)C1 (configuration not stated)
91	105.4	CCOc1ccc(NC(=O)N2CCC(n3cnc4ccccc4c3=O)CC2)cc1
92	108.8	O=C(Nc1ccc(F)c(Cl)c1)c1cccc(Nc2ncc(-c3ccc(F)cc3)cn2)c1
93	109.7	CC(C)(C)c1ccc(Cn2c3ccc(F)cc3c3nc4ccccc4nc32)cc1
94	99.8	O=C(Nc1ccc2c(c1)OCO2)N1CCN(C(=O)c2nsc3ccccc23)CC1
95	100.2	Cc1csc(-c2cc(S(=O)(=O)NC(C)(C)C)c(C)n2C)n1
96	105.6	Cn1c(SCC(=O)NCc2ccc(F)cc2)nc2cc(-c3ccccc3)sc2c1=O
97	109.5	COc1ccc(CC(=O)NCC2(c3ccccc3)CCOCC2)cc1
98	105.2	COc1ccc(Cl)cc1NC(=O)c1cc(S(=O)(=O)N2CCN(c3ccccc3Cl)CC2)ccc1F
99	103.6	CCOc1ccc(CN2CCCC2c2c(C)noc2C)cc1OC (configuration not stated)
100	107.3	CCCCN(CCCC)CC(O)CN(c1ccc(C)cc1)S(=O)(=O)c1ccc(C)cc1 (configuration not stated)
101	102.7	CC1CC(C)(C)N(C(=O)CN2C(=O)CCC2=O)c2ccccc21 (configuration not stated)
102	107.9	CC1(C)CC(=O)C(C(C2=C(O)CC(C)(C)CC2=O)c2cccc(Cl)c2Cl)C(=O)C1 (configuration not stated)
103	98.9	CN(CCO)c1cc(N2CCN(Cc3ccc4c(c3)OCO4)CC2)c2nonc2c1[N+](=O)[O-]
104	101.3	CCOC(=O)CC1(NC(=O)N2CCCC2c2cc(C)on2)CCCCC1 (configuration not stated)
105	103.8	O=C(Nc1ccc(F)c(F)c1)c1nc(N2CCCCC2)c2oc3ccccc3c2n1
106	110.9	CC(=O)Nc1ccc(-c2noc(C3CCCN(C(=O)Cc4c[nH]c5ccccc45)C3)n2)cc1 (configuration not stated)
107	105.0	Cc1cccc(NC(=O)NCc2nnc(C(=O)Nc3ccccc3)s2)c1
108	99.1	CCOC(=O)C1CCN(C(=O)c2snc3c(=O)n(CC(C)C)c(=O)[nH]c23)CC1
109	100.2	O=C(O)c1ccc2c(=O)n(Cc3ccc(C(=O)NCCc4ccc(Cl)cc4)cc3)c(=S)[nH]c2c1

Structural class: the compounds so far with bromine.
item	GIV Gai3 FP	SMILES
15	109.9	COc1ccc(/C=C2/N=C(c3ccc(OC)c(Br)c3)OC2=O)c(OC)c1
20	105.6	CCN(Cc1ccccc1)c1ccc(NC(=O)c2ccc(Br)cc2)cc1C(=O)O
32	127.7	Cc1cc(Br)ccc1N1C(=O)/C(=C/c2ccc(-c3cc(Cl)ccc3Cl)o2)C=C1c1ccccc1
43	116.6	C=CCNc1ncnc2c1c(-c1ccccc1)cn2-c1ccc(Br)cc1
50	107.7	COc1ccc(C2N(c3ccccc3)CCN2c2ccccc2)cc1Br
61	106.5	CC1(C)CC(=O)C2=C(C1)N(c1ccccc1)C(N)=C(C#N)C2c1cc(Br)cs1 (configuration not stated)
71	106.5	O=C(Nc1ccc(-c2noc(COc3ccc(Br)cc3)n2)cc1)c1cccs1
72	119.0	CCOC(=O)C1=CN(C(C)C)C=C(C(=O)OCC)C1c1cc(Br)c(OC)c(OCC)c1
75	112.3	COc1ccc(Br)cc1C1NC(=O)c2c(sc3c2CCCC3)N1 (configuration not stated)
78	104.5	O=C(CSc1nnc2c(n1)-c1cccc3cccc-2c13)Nc1ccccc1Br
85	101.4	O=C(Nc1ccc(SCc2nnc(-c3ccccc3)o2)cc1)Nc1ccc(Br)cc1F
